Assay outcomes as filed in PubChem BioAssay.
Hsp70 activator: transcriptional activators of Hsp70. activation, % at 10 µM. HeLa Hsp70 promoter luciferase reporter, luminescence; scaled: vehicle 0, proteasome-inhibitor control 100%. actives 0.04% (n = 200,000);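 active = activation above the mean across all tested compounds plus 3 SD, cutoff set per campaign, cut at about 5.5% in these data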;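 also: 100% = MG132 at 30 µM as the positive control and 0% = DMSO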
STAT3 act: activators of IL-6 induced STAT3 signaling. U3A cells, IL-6 STAT3-luciferase reporter, luminescence; 100% = signal with IL-6 EC80 alone. activation (% of control), % at 5.6 µM. actives 0.91% (n = 190,000). AID 871;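 active = activation above the screen-wide mean of compound activation plus 3 SD, cut at about 130% in these data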;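 also: 0% = background luminescence of wells with medium and substrate only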
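Material: human STAT1-deficient U3A cells with stable STAT3-luciferase reporter / Probe or stimulus: IL-6 stimulus at 33 ng/mL final / Schedule: 1 h compound pre-exposure, 6 h IL-6 stimulation, 37 °C / Technique: luminescence / Read-out basis: percent of IL-6-only median luminescence / Control set: IL-6-only high control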
STAT1 inh: STAT1 signaling inhibition; inhibition, % at 5.5 µM; NIH 3T3 STAT1-luciferase reporter, IFN-gamma, luminescence; actives 0.35% (n = 200,000);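 active = inhibition above a set limit, the mean inhibition across all tested compounds plus 3 SD, cut at about 34% in these data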;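 also: 0% = IFN-gamma with DMSO and 100% = IFN-gamma with 300 µM nifuroxazide; values of inactives mirror those of a sister screen read the other way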
STAT1 act: increases IFN-gamma driven STAT1 reporter signal; NIH 3T3 STAT1-luciferase reporter, luminescence; 100% = IFN-gamma alone, no compound; activation (% of control), % at 5.5 µM; actives 2.6% (n = 200,000); AID 932;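 active = activation above the screen-wide mean activation plus 3 SD, cut at about 130% in these data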;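 also: raw ratio to IFN-gamma control signal so 100% means no change and 0% no light; values of inactives mirror those of a sister screen read the other way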
RAM inhibit: inhibitors of the yeast RAM network; S. cerevisiae dse1pr::URA3 reporter, 5-FOA growth OD615, 2 d; analog-sensitive cbk1-as2 kinase mutant strain; inhibition, % at 50 µM; actives 1.8% (n = 190,000); AID 868;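 active = inhibition above a set limit, 3 SD over mean compound inhibition, cut at about 8.4% in these data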;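 also: 0% = DMSO-only wells with no growth and 100% = 10 µM 1-NA-PP1 full growth; inhibition rescues growth on 5-FOA so higher OD means more RAM inhibition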
The depositor's hits bear a star. Not all compounds are listed. The share of hits here may be higher or lower than overall.

| item | compound | STAT1 act | Hsp70 activator | STAT3 act | STAT1 inh | RAM inhibit |
| --- | --- | --- | --- | --- | --- | --- |
| 1 | C[C@H]1CCC/C=C/C2C[C@H](O)CC2[C@H](O)/C=C/C(=O)O1 (some centres undefined) | 58 | -0.5 | 20 | 46* | -0.4 |
| 2 | S=C1NCCN1 | 92 | -0.3 | 103 | 9 | 0.8 |
| 3 | C[N+](C)(C)Cc1ccccc1 | 96 | 0.0 | 102 | 4 | 0.1 |
| 4 | Cc1cc(Cl)ccc1OCC(=O)O | 110 | 0.1 | 100 | -11 | 0.5 |
| 5 | COc1ccc(O)c(C(C)(C)C)c1 | 101 | -0.3 | 104 | -2 | 0.1 |
| 6 | c1ccc2cc(CC3=NCCN3)ccc2c1 | 97 | -0.4 | 94 | 3 | 0.1 |
| 7 | CC(C)C1(C)N=C(c2ncccc2C(=O)O)NC1=O (centres undefined) | 95 | 0.0 | 108 | 5 | 0.3 |
| 8 | c1ccc2c(c1)Nc1ccccc1S2 | 95 | -0.2 | 86 | 5 | 3.9 |

Shown with one line to a screen: entries from further up
(5) COc1ccc(O)c(C(C)(C)C)c1
(6) c1ccc2cc(CC3=NCCN3)ccc2c1
(7) CC(C)C1(C)N=C(c2ncccc2C(=O)O)NC1=O (centres undefined)
(8) c1ccc2c(c1)Nc1ccccc1S2

Assay by compound	5	6	7	8
STAT1 act	101	97	95	95
Hsp70 activator	-0.3	-0.4	0.0	-0.2
STAT3 act	104	94	108	86
STAT1 inh	-2	3	5	5
RAM inhibit	0.1	0.1	0.3	3.9

A second format for part of the listing above:
Fields: STAT1 act, Hsp70 activator, STAT3 act, STAT1 inh, RAM inhibit
3. C[N+](C)(C)Cc1ccccc1
 : 96, 0.0, 102, 4, 0.1
4. Cc1cc(Cl)ccc1OCC(=O)O
 : 110, 0.1, 100, -11, 0.5

Fetched by structure from the entries so far:
| item | compound | STAT1 act | Hsp70 activator | STAT3 act | STAT1 inh | RAM inhibit |
| --- | --- | --- | --- | --- | --- | --- |
| 3 | C[N+](C)(C)Cc1ccccc1 | 96 | 0.0 | 102 | 4 | 0.1 |
| 4 | Cc1cc(Cl)ccc1OCC(=O)O | 110 | 0.1 | 100 | -11 | 0.5 |
